TSHR ag: activates the human thyroid stimulating hormone receptor | HEK293-CNG-TSHR cells (CNG channel as cAMP sensor), membrane potential dye, cAMP | 73,000 tested, 0.48% active | Potency, µM (doses to about 57.1 µM), inactives show at the highest dose activation, most hits filed as activators; active = well fitted activation curve of enough size with the parental cells flat; inconclusive = any curve in the parental cells; inactive = parental cells flat and receptor cells flat or falling; also: potency is read from the fitted curve at half-maximal effect; % of control where 0% means no effect; weak receptor curves with flat parental cells got no call and are not listed
Target sequence (P16473 whole entry, looked up): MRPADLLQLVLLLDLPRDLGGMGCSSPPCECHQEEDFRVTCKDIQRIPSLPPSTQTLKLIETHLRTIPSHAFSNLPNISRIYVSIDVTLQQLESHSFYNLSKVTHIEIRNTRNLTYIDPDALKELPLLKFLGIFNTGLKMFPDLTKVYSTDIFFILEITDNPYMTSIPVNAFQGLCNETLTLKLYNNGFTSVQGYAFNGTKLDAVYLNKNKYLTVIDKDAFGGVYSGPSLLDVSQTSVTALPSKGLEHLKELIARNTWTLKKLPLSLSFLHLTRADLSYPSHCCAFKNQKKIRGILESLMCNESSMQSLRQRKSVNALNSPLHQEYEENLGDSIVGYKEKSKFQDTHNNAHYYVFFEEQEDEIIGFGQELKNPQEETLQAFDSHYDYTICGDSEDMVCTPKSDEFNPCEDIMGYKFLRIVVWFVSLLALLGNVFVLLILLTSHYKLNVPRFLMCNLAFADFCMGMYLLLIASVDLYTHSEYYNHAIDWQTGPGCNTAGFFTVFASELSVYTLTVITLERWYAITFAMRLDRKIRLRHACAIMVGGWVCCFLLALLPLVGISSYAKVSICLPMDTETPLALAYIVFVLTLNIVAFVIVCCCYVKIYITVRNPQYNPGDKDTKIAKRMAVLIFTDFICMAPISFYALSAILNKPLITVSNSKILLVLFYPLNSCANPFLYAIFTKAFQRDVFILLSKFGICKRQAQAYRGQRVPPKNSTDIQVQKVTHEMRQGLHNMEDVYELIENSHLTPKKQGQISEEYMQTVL
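HEK 293 cells stably expressing TSHR and a cAMP-gated CNG channel; parental CNG-only cells as counterscreen. Cells preloaded 60 min with membrane potential dye plus 100 uM RO 20-1724, then compound 30 min; fluorescence read at 590 nm.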
Resorufin fluor: compounds fluorescent in resorufin spectral region. Compound fluorescence, resorufin region 547/598 nm, buffer; stronger effect = higher value. max dye-equivalent concentration, M. 59,000 tested, 0.04% active. AID 588; active = above 10 nM dye equivalent; inconclusive = 1 to 10 nM; inactive = 1 nM or less; a few of its hits are not listed in these tables; also: highest value over a series up to 38 µM
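Tris 100 mM pH 8.0; compound added, 15 min RT; CCD imager read, ex 547 nm/em 598 nm; signal normalized to resorufin standard curve (six concentrations per plate) as dye-equivalent concentration.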
A647 fluor: compound autofluorescence in A647 spectral region | 59,000 tested, under 10 active | AID 592 | Compound fluorescence, A647 channel (570/671 nm), Tris buffer | max dye-equivalent concentration, M; active means above 1 µM dye equivalent; inconclusive means 0.1 to 1 µM; inactive means 0.1 µM or less;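 also: values scaled relative to a standard on each plate; highest value over a series up to 38 µM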
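Compound fluorescence was measured in 100 mM Tris buffer, pH 8.0, after 15 min at room temperature, using 570 nm excitation and 671 nm emission filters. Signal was normalized to a per-plate Alexa 647 standard curve and expressed as dye-equivalent concentration at each compound concentration.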
AID923: qHTS Assay for Allosteric/Competitive Inhibitors of Caspase-1: Spectroscopic Profiling in AFC Spectral Region. Potency, µM (doses to about 57.5 µM), for inactives: at the top dose fluorescence increase, actives largely listed as activators. 75,000 tested, 1.1% active. compound fluorescence, AFC spectral region (405/520 nm); almost no hit is shown here; active = well fitted activation curve with a large enough effect; inconclusive = small, poorly fitted or top-dose-only effect;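 also: potency is read from the fitted curve at half-maximal effect; 0% is about no effect; scaled to a free AFC standard on each plate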
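Compound autofluorescence profiled at 405 nm ex/520 nm em during kinetic caspase 1 run (50 nM enzyme, 5 uM Ac-WEHD-AFC, HEPES pH 7.5, 10 mM DTT). Titration up to 57 uM; baseline from regression intercept, normalized to AFC standard curve.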
A488 fluor: compound fluoresces in the A488 spectral region; compound autofluorescence, A488 spectral region, dye equivalency; stronger effect = higher value; max dye equivalency, M; 59,000 tested, 0.1% active; active = above 10 nM dye equivalent; inconclusive = 1 to 10 nM; inactive = 1 nM or less; about half of its hits are not listed in these tables;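 also: highest value over a series up to 38 µM; compound alone in buffer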
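Intrinsic compound fluorescence is measured in 100 mM Tris buffer at pH 8.0 following 15 min incubation at room temperature. Intensities at 480 nm excitation/540 nm emission are calibrated to an on-plate A488 concentration series, giving dye-equivalent concentrations.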
* marks the source's active call; other numbers are inactive results; i = inactive; u = inconclusive; x = not tested or not shown; [ ] = remark or other dose.

SMILES	TSHR ag	Resorufin fluor	A647 fluor	AID923	A488 fluor
Cc1ccc2[nH]c(=O)c(CN(CC3CCCO3)C(=O)c3ccncc3)cc2c1 (centres undefined)	6%	i	6.7e-09	-1.3%	i
O=C(Nc1ccc2oc(-c3ccccc3)nc2c1)c1ccc2c(c1)OCCO2	x	i	1e-09	0.9%	i
Cc1cc(C)cc(-n2c(=O)c3sccc3n(CC(=O)NCc3ccco3)c2=O)c1	2%	i	7.9e-09	-0.6%	i
O=C(O)c1ccc2c(c1)N(Cc1cccc(F)c1)C(=O)CS2	17%	x	x	1.0%	x
CNC(=O)[C@]1(C)C[C@H]1[C@H](NC(=O)[C@]1(C)C[C@H]1[C@H](NC(=O)[C@]1(C)C[C@H]1[C@H](NC(=O)[C@]1(C)C[C@H]1[C@H](NC(=O)OCc1ccccc1)c1ccccc1)c1ccccc1)c1ccccc1)c1ccccc1	-2%	x	x	0.3%	x
OC(CNCC1COc2ccccc2O1)COCc1cccs1 (centres undefined)	6%	i	1e-09	1.4%	i
CSc1ccc(C(C(C(=O)c2cccs2)N2CCOCC2)N2CCOCC2)cc1 (centres undefined)	x	i	4.2e-08	3.1%	i
O=C(Cn1nc(-c2ccc(Cl)cc2)ccc1=O)NCCN1CCOCC1	4%	x	x	2.1%	x
O=C(NCc1ccco1)C1CC(=O)N(CCc2ccccc2)C1 (centres undefined)	1%	i	1.4e-09	0.4%	i
CN(C)/C=C1/Nc2ccccc2C1=O	3%	i	1e-09	4.7%	i
C=C(C)COc1ccc(-c2nc(N)nc(C)c2Oc2ccccc2OC)c(O)c1	-7%	i	1e-09	0.8%	i
O=C(NC1CCCc2ccccc21)C1CCCN(S(=O)(=O)c2cnc[nH]2)C1 (centres undefined)	-3%	x	x	1.3%	x
CCC(=O)Nc1cc(=O)[nH]c2ncnn12	4%	i	1e-09	-0.5%	i
N#Cc1nc(COc2ccc(Cl)cc2Cl)oc1N1CCN(c2ccccc2)CC1	u	i	3.6e-08	1.0%	i
COC(=O)[C@@]1(Cc2ccc(OC)cc2)[C@H]2c3cc(C(=O)N(C)C)n(CCN4CNCC4=O)c3C[C@H]2CN1C(=O)c1ccccc1	u	x	x	-2.1%	x
CCOC(=O)c1cc2c3ccccc3n(CC)c2nc1N	u	x	x	0.5%	x
CCOc1ccc2nc(NS(=O)(=O)c3ccc4c(c3)n(C)c(=O)n4C)sc2c1	1%	i	1e-09	19%	i
Cc1nc2cc3nc(C)sc3cc2s1	1%	i	1.4e-09	1.3%	i
CSc1nc(N)c2ncn([C@@H]3O[C@@H](COP(=O)(O)OP(=O)(O)OP(=O)(O)O)[C@@H](O)[C@H]3O)c2n1	21%	i	2.3e-08	-2.5%	i
Cc1ccc2nc3c(cc(C(=O)NCC4CCCO4)n3C)c(=O)n2c1 (centres undefined)	17%	i	2.7e-08	2.4%	i
O=C(Nc1nnc(/N=C/c2ccco2)s1)c1ccc(F)cc1	-5%	i	4.8e-08	1.1%	i
Cc1occc1-c1nnc(SCC(=O)Nc2ccccc2N2CCCCC2)n1C	u	i	4.5e-08	-0.1%	i
Cc1cc2ccccc2c(=O)n1CC(=O)NCC1COc2ccccc2O1 (centres undefined)	8%	i	2.1e-09	3.7%	i
O=[N+]([O-])c1ccc2c(c1)Cc1cc(N=Cc3ccc4c(c3)OCO4)ccc1-2	-5%[11.4 µM]	i	6.8e-09	1.8%[11.5 µM]	i
Cc1ccc(N2CCN(C(=O)c3ccccc3Br)CC2)c(C)c1	9%	i	2e-08	-1.4%	i
O=C(CN1CCOCC1)Nc1ccc(S(=O)(=O)NC2CCCCC2)cc1	10%	i	1e-09	-0.3%	i
Cn1c(=O)c2c(nc(NCc3ccco3)n2Cc2ccc(Cl)cc2Cl)n(C)c1=O	x	i	9.7e-09	x	i
CS(=O)(=O)Nc1cccc(C(=O)CC2(O)C(=O)Nc3ccc(Br)cc32)c1 (centres undefined)	-5%	i	3.1e-08	-0.3%	i
Nc1cc(N)c(OCC(F)(F)F)cc1OCC(F)(F)F	-5%	i	9.9e-09	7.2%	i
CC(=O)OCC(=O)[C@@]1(O)CC[C@H]2[C@@H]3CCC4=CC(=O)C=C[C@]4(C)[C@@]3(Cl)[C@@H](Cl)C[C@@]21C	x	i	3.8e-09	x	i

Looked up by structure from the list above:
SMILES	TSHR ag	Resorufin fluor	A647 fluor	AID923	A488 fluor
O=C(Nc1nnc(/N=C/c2ccco2)s1)c1ccc(F)cc1	-5%	i	4.8e-08	1.1%	i
O=C(CN1CCOCC1)Nc1ccc(S(=O)(=O)NC2CCCCC2)cc1	10%	i	1e-09	-0.3%	i
CC(=O)OCC(=O)[C@@]1(O)CC[C@H]2[C@@H]3CCC4=CC(=O)C=C[C@]4(C)[C@@]3(Cl)[C@@H](Cl)C[C@@]21C	x	i	3.8e-09	x	i
CS(=O)(=O)Nc1cccc(C(=O)CC2(O)C(=O)Nc3ccc(Br)cc32)c1 (centres undefined)	-5%	i	3.1e-08	-0.3%	i
CSc1nc(N)c2ncn([C@@H]3O[C@@H](COP(=O)(O)OP(=O)(O)OP(=O)(O)O)[C@@H](O)[C@H]3O)c2n1	21%	i	2.3e-08	-2.5%	i

The listing continues.
SMILES	TSHR ag	Resorufin fluor	A647 fluor	AID923	A488 fluor
O=C(NCCCN1CCOCC1)c1ccc(CS(=O)(=O)c2cccc(C(F)(F)F)c2)o1	5%	i	2e-09	-0.6%	i
Cc1nn(Cc2ccccc2)c(C)c1C(=O)OCC(=O)c1cc(C)n(C2CC2)c1C	u	i	7.2e-09	0.2%	i
CCN1C(=O)[C@H]2[C@H]3[C@H](O)[C@H](O)C/C(=N/OCc4ccccc4)[C@@H]3CC[C@@H]2C1=O	0%[11.4 µM]	x	x	2.9%[11.5 µM]	x
Cc1c(C(=O)NCc2ccccc2Cl)oc2c1C(=O)CCC2	1%	i	4.3e-08	-0.5%	i
O=C(CSc1ccc2nnc(-c3ccc(Cl)cc3)n2n1)N1CCCC1	4%	x	x	1.7%	x
COc1ccc2[nH]c(=O)c(CN(Cc3cccs3)S(=O)(=O)c3cccc4nsnc34)cc2c1	-10%	i	1e-09	0.2%	i
Cc1ccc(C)c2[nH]c(=O)c(CCNC(=O)C(C)(C)C)cc12	-8%	x	x	-2.1%	x
CCn1c(SCC(=O)NCc2cccs2)nnc1-c1ccncc1	-2%	i	1.1e-09	0.4%	i
O=S1(=O)C=C(N2CCCCC2)c2ccccc21	-3%	i	1.5e-08	3.3%	i
Cc1ccc(NC(=O)CSc2nnc(Cn3cnc4ccccc43)o2)cc1	-2%	i	3.1e-09	-0.6%	i
COc1ccc(Cl)cc1NC(=O)c1ccoc1C	15%[11.4 µM]	x	x	-0.3%	x
CCOC(=O)CSc1nc(N2CCOCC2)c2c(c1C#N)CC(C)(C)N(C)C2	x	i	1e-09	x	i
Cc1ccc(-c2nnn(CC(=O)N(CC3CCCO3)C(C(=O)NC(C)(C)C)c3ccc(F)cc3)n2)o1 (centres undefined)	u	i	1e-09	3.2%	i
c1ccc(-c2nc(-c3ccncc3)no2)cc1	2%	i	1e-09	-1.5%	i
CS(=O)(=O)Nc1ccc([N+](=O)[O-])cc1OC1CCCCC1	u	x	x	-1.1%	x
O=C(O)CCC(=O)CCC(=O)c1ccccc1	-2%	i	1e-09	0.8%	i
CCN1C=CC(=C2C(=O)c3ccccc3C2=O)C=C1	10%	x	x	0.6%	x
COc1ccc(C2(C(=O)N3CCCC3)CCOCC2)cc1OC	0%	x	x	1.7%	x
CS(=O)(=O)N1CCC[C@@]2(CCN(c3ccncc3)C2)C1	2%	i	2.6e-09	2.8%	i
COc1ccc2cc(C(=O)OC(C)C)sc(=O)c2c1OC	2%	i	4.2e-08	4.5%	i
CCOC(=O)CCN1C(=O)[C@H]2[C@H]3[C@H](O)[C@H](O)C/C(=N/OC[C@@H](O)COCc4ccco4)[C@@H]3CC[C@@H]2C1=O	-3%[11.4 µM]	x	x	-0.6%[11.5 µM]	x
CCC(O)CNc1nc(-n2nc(C)cc2C)nc2sc3c(c12)CCCC3 (centres undefined)	0%	i	1.9e-08	-2.1%	i
NC(=O)c1ccccc1NC(=O)CN1CCOCC1	-1%	i	7.9e-09	-0.2%	i
CCc1cc(Br)ccc1NC(=O)C1CCCO1 (centres undefined)	6%	i	1.9e-08	-2.0%	i
CCOc1ccc(S(=O)(=O)n2nnc3ccccc32)cc1C	8%	i	2.9e-08	-1.3%	i
CCOc1ccc2[nH]c(=O)c(CN(C(=O)N3CCOCC3)C3CC3)cc2c1	2%	i	1e-09	1.0%	i
Cc1cc(OCC(=O)O)c2cccc(C)c2n1	1%[11.4 µM]	i	2.4e-08	0.5%	i
Cc1ccc(C(=O)CC(C(=O)O)n2ccc(C)n2)cc1 (centres undefined)	15%	i	1e-09	-1.4%	i
O=C(CSc1ncnc2c1cnn2-c1ccccc1)Nc1ccc2c(c1)OCO2	u	i	3.7e-08	0.6%	i
CC1CCC(C(=O)O)NC1c1ccc(C#CCN(C)C)cc1 (centres undefined)	-2%[11.4 µM]	x	x	-0.1%[11.5 µM]	x

Entries from the list above with fluorine, in the order listed:
SMILES	TSHR ag	Resorufin fluor	A647 fluor	AID923	A488 fluor
O=C(O)c1ccc2c(c1)N(Cc1cccc(F)c1)C(=O)CS2	17%	x	x	1.0%	x
O=C(Nc1nnc(/N=C/c2ccco2)s1)c1ccc(F)cc1	-5%	i	4.8e-08	1.1%	i
Nc1cc(N)c(OCC(F)(F)F)cc1OCC(F)(F)F	-5%	i	9.9e-09	7.2%	i
O=C(NCCCN1CCOCC1)c1ccc(CS(=O)(=O)c2cccc(C(F)(F)F)c2)o1	5%	i	2e-09	-0.6%	i
Cc1ccc(-c2nnn(CC(=O)N(CC3CCCO3)C(C(=O)NC(C)(C)C)c3ccc(F)cc3)n2)o1 (centres undefined)	u	i	1e-09	3.2%	i

New compounds follow.
SMILES	TSHR ag	Resorufin fluor	A647 fluor	AID923	A488 fluor
O=C1CCCN1CCC1CCN(C(=O)Nc2ccccc2)CC1	u	i	2.1e-08	0.1%	i
N#CC1(O)CCCCC1	4%	x	x	-0.4%	x
COc1ccc(-c2noc(COc3ccc(C)c(C)c3)n2)cc1OC	x	i	1e-09	-1.4%	i
C[C@H](O)CO[C@H]1[C@H]2O[C@H]3[C@H](O)[C@@H](O)[C@@H](O[C@H]4[C@H](O)[C@@H](O)[C@@H](O[C@H]5[C@H](O)[C@@H](O)[C@@H](O[C@H]6[C@H](O)[C@@H](OC[C@H](C)O)[C@@H](O[C@H]7[C@H](O)[C@@H](OC[C@H](C)O)[C@@H](O[C@H]8[C@H](O)[C@@H](O)[C@@H](O[C@@H]([C@@H]1O)[C@@H](CO)O2)O[C@@H]8CO)O[C@@H]7CO)O[C@@H]6CO)O[C@@H]5CO)O[C@@H]4CO)O[C@@H]3CO	13%	x	x	0.3%	x
CCc1ccc(OCC(=O)N(C)CCC#N)c(Br)c1	22%	i	2.1e-09	-1.3%	i
COc1cccc(C2CC(c3cccs3)Nc3ncnn32)c1 (centres undefined)	2%	i	1e-09	-1.2%	i
O=C(O)CCc1ccc(-c2ccc(F)cc2)n1NC(=O)c1ccco1	6%	i	1.7e-08	-0.5%	i
CCn1c(-c2ccc3[nH]c(C)c(C)c3c2)n[nH]c1=S	-19%	x	x	0.7%	x
CC(=O)C1C(=O)CC(C)(O)C(C(C)=O)C1c1ccc(N(C)C)cc1 (centres undefined)	2%	i	4.4e-09	-1.0%	i
NC(=O)CN1C(=O)C2C3C=CC(C3)C2C1=O (centres undefined)	-1%	i	1.1e-08	0.4%	i
CCC(NC(=O)c1ccccc1NC(=O)c1ccco1)C(=O)NC1CCCCC1 (centres undefined)	14%	x	x	11%	x
Cc1c(=O)n(OCc2ccccn2)c2ccccc2[n+]1[O-]	-7%	i	1e-09	-0.2%	i
C[N+](C)(C)CCN[N@@+]1(C)CCCc2ccccc21	-7%[11.4 µM]	i	1e-09	-2.1%[11.5 µM]	i

Screening results from PubChem.

A portion of the library (hit frequency here may not be typical).
